rRNA inh HTS: inhibits bacterial ribosomal RNA function over humanized ribosomes; 350,000 compounds, 1.6% hits; AID 720706; GFP signal change (wild-type ribosome), % (test concentration not listed); E. coli WT GFP vs humanized-ribosome RFP mutants, fluorescence, 24 h; active compounds read low; DMSO median 0, no signal -100;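 active means significant combined selectivity score with lowered wild-type GFP, culture density cut under 30%, mutant RFP and density less affected; inactive means any of these conditions unmet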; further: one replicate is shown; some compounds called inactive have numbers as strong as hits
MLL AF4-AF9 inh: blocks AF4 peptide binding to human AF9; AID 651704; AlphaScreen, biotin-AF4 peptide binding to FLAG-AF9; 350,000 compounds, 0.47% hits; P42568; inhibition, % at 10 µM;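 active means every replicate reaching a set inhibition limit, whatever the replicate mean, cut at about 25% in these data; inconclusive means mean inhibition reaches that limit but some replicates miss it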;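 further: 0% = plate neutral control median and 100% = total signal loss; the record names both 10 and 1 µM as test concentration; the first replicate is given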
ALR inh: inhibitors of human sulfhydryl oxidase ALR | P55789 | purified ALR, DTT oxidation, H2O2 HRP-luminol luminescence | inhibition, % (test concentration not listed) | 290,000 compounds, 3.8% hits | AID 485317;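 active means mean and each replicate at 75% or more; inconclusive means only one of the two met; inactive means neither met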;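 further: stock transfer was 7.5 nL into about 7.5 µL; 0% = neutral wells and 100% = wells with inactivated enzyme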
Target sequence (P55789 whole entry, looked up): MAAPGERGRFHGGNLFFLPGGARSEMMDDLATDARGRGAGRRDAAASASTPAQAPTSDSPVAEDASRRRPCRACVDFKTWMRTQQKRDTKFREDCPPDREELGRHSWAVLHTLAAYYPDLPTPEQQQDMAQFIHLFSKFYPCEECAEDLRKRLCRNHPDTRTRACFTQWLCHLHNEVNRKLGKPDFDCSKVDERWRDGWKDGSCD
HNF4A DNA FP: change in binding of human HNF4 alpha to DNA. P41235. HNF4a-FITC DNA binding, fluorescence polarization, 1 h. activity change, % at 10 µM. 360,000 compounds, 0.3% hits. AID 1224865; in the data active means activity change above about 30%, passing the limit was not always enough;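 further: controls were the assay level and a saturating level of protein; the project sought stronger binding though the title names inhibitors; some compounds called inactive have numbers as strong as hits; positive values seem to mean higher polarization but the record does not say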
Target sequence (P41235 whole entry, looked up): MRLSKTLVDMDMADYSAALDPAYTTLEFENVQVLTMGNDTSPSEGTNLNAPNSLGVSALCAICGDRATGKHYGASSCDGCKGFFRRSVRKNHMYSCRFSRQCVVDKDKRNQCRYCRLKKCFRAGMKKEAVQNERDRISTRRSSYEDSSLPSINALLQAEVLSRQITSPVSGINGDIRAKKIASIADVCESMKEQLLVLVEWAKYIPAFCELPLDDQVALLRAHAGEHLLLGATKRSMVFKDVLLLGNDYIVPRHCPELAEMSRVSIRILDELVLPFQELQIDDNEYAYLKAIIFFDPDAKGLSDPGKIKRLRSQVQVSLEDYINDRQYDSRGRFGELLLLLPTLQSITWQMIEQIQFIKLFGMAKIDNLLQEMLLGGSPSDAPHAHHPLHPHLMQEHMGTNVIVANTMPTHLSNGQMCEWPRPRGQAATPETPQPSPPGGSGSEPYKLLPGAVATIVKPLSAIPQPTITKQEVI
FGF22 binding: binders of recombinant human FGF22 by thermal shift; SYPRO orange fluorescence; percent of sucrose octasulfate shift, DMSO zero; Q9HCT0; calls only at 9.99 µM; 340,000 compounds, 1.5% hits;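 active means melting point raised past a set limit in the mean and every replicate; inconclusive means no clear call; three in four hits are not shown here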
Target sequence (Q9HCT0 whole entry, looked up): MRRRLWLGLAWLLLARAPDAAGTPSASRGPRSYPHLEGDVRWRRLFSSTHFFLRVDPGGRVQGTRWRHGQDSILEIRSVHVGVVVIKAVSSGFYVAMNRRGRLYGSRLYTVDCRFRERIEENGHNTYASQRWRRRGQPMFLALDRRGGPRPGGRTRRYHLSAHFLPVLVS
Vif TR-FRET: inhibitors of Vif binding to APOBEC3G peptide, primary screen, biochemical, TR-FRET, GST-Vif 1-94, biotin-A3G peptide, dose response retest (AID 1117319). 260,000 compounds, 0.57% hits. inhibition, %, or IC50 in µM where a hit was titrated. TR-FRET GST-Vif / biotin-A3G peptide binding; higher % means a stronger effect; test concentration not given here; strong numbers were not always called active;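 active means above the screen mean plus three standard deviations and confirmed in dose response; inconclusive means results disagree or hit not tested in dose response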;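 further: Vif residues 1-94 fused to GST binding biotinylated APOBEC3G peptide 110-148; 0% = full assay without inhibitor and 100% = GST in place of GST-Vif; retest series ran down from 100 µM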
Ecoli growth: E. coli growth inhibition | 330,000 compounds, 0.21% hits | AID 1053175 | OD600 absorbance (concentration not given with the values) | Escherichia coli growth, OD600, 23 h; active compounds read low;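 active means OD600 absorbance below the run mean of sample wells minus 3.6 SD, in any replicate, cut at about 0.56 in these data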;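 further: stock transfer was 300 nL into about 60 µL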
rRNA inh HTS OD600: second read-out of rRNA inh HTS, no call of its own (marks repeat the call); OD600 change, %; measured here: OD600 growth;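 optical density of the mix in the first replicate; 0 = DMSO median and -100 = no signal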
rRNA inh HTS RFP: recorded beside rRNA inh HTS, whose call it bears; RFP signal change, %; measured here: RFP humanized mutant strains;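 first replicate; 0 = DMSO median and -100 = no signal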
Numbers without * were called inactive; i = inactive; ? = inconclusive; . = no result given. This is a subset. The share of hits here may be higher or lower than overall.

structure | Vif TR-FRET | Ecoli growth | HNF4A DNA FP | FGF22 binding | MLL AF4-AF9 inh | rRNA inh HTS OD600 | rRNA inh HTS | rRNA inh HTS RFP | ALR inh
COc1ccc(-c2csc3nc(-c4ccccc4OC)oc(=O)c23)cc1 | -3% | 0.7 | -1.0 | i | 3.2 | -9.1* | -20* | 1.0* | 12
CCC(C)(C)NC(=O)C(c1ccccn1)N(C(=O)c1csnn1)c1ccccc1 (centres undefined) | 16% | 0.68 | -1.2 | i | -1.4 | 10 | 9 | -0.4 | -12
CCCCN1C(=O)C(CC(=O)NCc2ccco2)CC(C(=O)N(C(C)C)C(C)C)=C1C (centres undefined) | . | . | 2.3 | i | -2.8 | 10 | 5 | 2.0 | .
Cc1ccccc1-n1ncc2c1CC(C)(C)CC2NC(=O)c1snnc1C (centres undefined) | . | 0.69 | -0.4 | i | 1.9 | -5 | -3 | -1.1 | -5
Cc1nn(-c2ccccc2)c(C)c1C(=O)Nc1ccc(N2CCOCC2)cc1 | ? | 0.68 | 2.3 | i | 1.0 | 2 | 9 | -4.9 | 5
CCCCCc1cc(=O)c2ccccc2o1 | . | 0.62 | 3.4 | i | . | 5 | 7 | 0.6 | -9
CCC(C)C(NC(C)=O)C(=O)NC(=O)NC(c1ccccc1)c1ccccc1 (centres undefined) | 9% | 0.7 | -1.0 | . | . | . | . | . | 2
O=C(COc1ccccc1)NCCSCc1ccco1 | 14% | 0.73 | -2.0 | . | . | . | . | . | 82*
CCCNC(=O)N[C@H]1CC[C@@H](CCn2cc(C3CC3)nn2)O[C@H]1CO | . | . | . | i | 2.4 | 4 | -1 | -1.4 | .
O=C(COc1ccc(S(=O)(=O)NC2CCCCC2)cc1Cl)Nc1ccc2c(c1)OCO2 | 1% | 0.73 | 2.6 | . | . | . | . | . | -17
O=C(NCc1cccc(Cl)c1)c1ccc(S(=O)(=O)Nc2cccc(C(F)(F)F)c2)cc1 | 12% | 0.66 | -2.0 | . | . | . | . | . | 1
COc1ccc(C(C)=O)cc1Cn1nc(C)c([N+](=O)[O-])c1C | . | 0.68 | 5.2 | i | -0.1 | 8 | 4 | -8.8 | -19
CCOC(=O)C1=C(C)NC(C)=C(C(=O)OCC)C1C(=O)OCC(=O)NCCc1ccc(S(N)(=O)=O)cc1 | 1% | 0.63 | -0.6 | i | -0.9 | -6 | 2 | 0.3 | -11
O=C(C[n+]1cc(-c2ccc(Br)cc2)n2c1CCCCC2)c1ccccc1 | -4% | 0.64 | 0.3 | . | 2.5 | -75 | -50 | -15 | -5
CCN(Cc1ccccc1)S(=O)(=O)c1ccc(C(=O)N(CCCN(C)C)c2nc3c(F)cccc3s2)cc1 | 2% | 0.65 | -3.1 | . | 3.6 | -39* | -48* | -11* | 6
CCCCNC(=O)c1[nH]c(=O)cnc1-c1ccccc1 | . | . | 3.8 | i | -1.4 | 2 | 1 | -1.8 | .
Cc1cc(C)n(Cc2ccccc2F)c(=O)c1C#N | 4% | 0.73 | 0.5 | i | -0.3 | 6 | 1 | -0.1 | -6
CN1CCCC(n2nc(Cc3ccc(Cl)cc3)c3ccccc3c2=O)CC1 (centres undefined) | . | 0.7 | 2.2 | i | 1.4 | -14 | -9 | 17 | -2
O=C(c1cccs1)N1CCN=C1SCc1cccnc1 | 4% | 0.69 | -2.3 | . | . | . | . | . | 99*
CC(C)NC(=O)Nc1ccc2c(c1)C(=O)N([C@@H](C)CO)C[C@@H](C)[C@H](CN(C)C(=O)Nc1ccc3c(c1)OCO3)OCCCC[C@@H](C)O2 | . | . | . | i | -1.6 | -3 | -2 | -0.3 | .
CC1CN(S(=O)(=O)c2csc(C(=O)Nc3ccccc3)c2)CC(C)O1 (centres undefined) | 4% | 0.68 | 0.1 | i | 1.3 | 6 | 5 | 1.9 | 7
Cc1ccc(-c2c(C(=O)N/N=C/c3cccnc3)nnn2-c2nonc2N)cc1 | 22% | . | 1.2 | i | 3.0 | 1 | 1 | 2.5 | -6
COc1ccccc1CNC(=O)CNC(=O)c1ccc(Br)o1 | -2% | 0.72 | 0.1 | i | -1.3 | 12 | 4 | 0.1 | -6
Cc1ccccc1Oc1ncccc1C(=O)/C(C#N)=C/N(C)C | 8% | 0.67 | -0.4 | . | . | . | . | . | -1
COc1cc(Nc2ccc(C)cc2)c([N+](=O)[O-])nc1[N+](=O)[O-] | 9% | 0.66 | -0.9 | . | . | . | . | . | -13
O=C1CCc2cc(S(=O)(=O)N3CCC(C(=O)NCCC4=CCCCC4)CC3)ccc2N1 | 2% | 0.75 | -1.1 | i | -5.1 | 4 | 11 | 7.8 | .
CCCOc1ccc(-c2cnc(SCC(N)=O)nc2N)cc1 | 15% | 0.71 | 3.5 | . | . | . | . | . | 13
C[C@H]1CN([C@@H](C)CO)S(=O)(=O)c2ccc(C#Cc3cccnc3)cc2O[C@@H]1CN(C)C(=O)CN(C)C | . | . | . | i | -1.2 | -1 | 1 | 4.9 | .
CCNC[C@@H]1[C@H](c2ccc(C3=CCCC3)cc2)[C@H](CO)N1c1nc(C)c(C)s1 | . | . | . | i | 13 | -54 | -13 | 42 | .
COCC(=O)N1CCCC(N(C)CCc2ccc(OC)c(OC)c2)C1 (centres undefined) | . | 0.64 | 6.6 | i | -2.7 | . | . | . | .
CN(C)/C=C1\SC(=S)N(c2ccc(Br)cc2)C1=O | 4% | . | 110 | i | -3.0 | -46 | -50 | -9.6 | 10
FC(F)(F)c1cc(Cl)c2nc(-c3ccc(Cl)cc3)c(Cc3ccsc3)n2c1 | . | . | -0.1 | i | -0.4 | -31 | -22 | 1.4 | .
COc1ccc(-c2sc3ccccc3c2-c2ccc(OCCN(C)C)cc2)cc1 | . | 0.47* | 3.9 | i | 24 | -75 | -59 | -29 | -8
CC(C)n1nnc2ccccc2c1=O | -6% | 0.73 | -2.5 | . | . | . | . | . | 7
COc1ccccc1NC(=O)Nc1nc(C(N)C(C)C)cs1 (centres undefined) | . | . | -0.1 | i | 11 | -20 | -8 | -0.1 | .
O=C(CC1(O)C(=O)Nc2cc(Cl)cc(Cl)c21)c1ccccc1O (centres undefined) | 16% | 0.59 | 0.3 | . | . | . | . | . | -2
Cc1ccnc(NC(=O)c2cccc(S(=O)(=O)N3CCN(c4ccc(F)cc4)CC3)c2)c1 | -8% | 0.72 | 2.1 | i | 2.9 | -13 | -7 | -0.1 | .
COc1ccccc1-c1cnc2c(c1)C(=O)N([C@H](C)CO)C[C@H](C)[C@@H](CN(C)C(C)=O)O2 | . | . | . | i | -3.3 | 13 | 2 | -2.0 | .
C[C@H]1CN([C@@H](C)CO)C(=O)c2cccc(NC(=O)c3ccncc3)c2O[C@@H]1CN(C)S(=O)(=O)c1ccc(Cl)cc1 | . | . | . | i | -1.9 | 4 | -3 | 0.9 | .
COc1ccc(NC(=O)c2ccc(NC(=O)c3nc4nccc(C)n4n3)cc2)cc1 | . | 0.68 | 0.7 | i | 0.3 | 7 | 10 | 1.7 | -2

2 compounds drawn at random from the list so far:
structure | Vif TR-FRET | Ecoli growth | HNF4A DNA FP | FGF22 binding | MLL AF4-AF9 inh | rRNA inh HTS OD600 | rRNA inh HTS | rRNA inh HTS RFP | ALR inh
CCC(C)C(NC(C)=O)C(=O)NC(=O)NC(c1ccccc1)c1ccccc1 (centres undefined) | 9% | 0.7 | -1.0 | . | . | . | . | . | 2
CCNC[C@@H]1[C@H](c2ccc(C3=CCCC3)cc2)[C@H](CO)N1c1nc(C)c(C)s1 | . | . | . | i | 13 | -54 | -13 | 42 | .

(more compounds)
structure | Vif TR-FRET | Ecoli growth | HNF4A DNA FP | FGF22 binding | MLL AF4-AF9 inh | rRNA inh HTS OD600 | rRNA inh HTS | rRNA inh HTS RFP | ALR inh
C[C@@H]1CN([C@H](C)CO)C(=O)Cc2cc(NC(=O)C3CCCCC3)ccc2O[C@@H]1CN(C)C(=O)Nc1ccc(F)cc1 | . | . | . | i | -0.2 | 1 | 0 | 1.3 | .
CC1CN(S(=O)(=O)c2cccc(-c3cn4ccccc4n3)c2)CC(C)O1 (centres undefined) | 1% | 0.68 | -4.9 | i | 0.3 | -7 | -15 | 3.9 | -9
CCOc1ccc2c(c1)OC(c1ccc(C)cc1)(C(F)(F)F)NC2=O (centres undefined) | -5% | 0.66 | 1.2 | . | . | . | . | . | -9
Cc1cc(NC(=S)Nc2cccnc2)ccc1Br | -8% | 0.63 | -2.5 | i | 2.0 | -3.1* | -46* | -15* | .
O=C(N/C(=C\c1ccco1)C(=O)N1CCCC1CO)c1ccccc1 (centres undefined) | . | 0.69 | -4.2 | i | -1.4 | -8 | -13 | 7.8 | .
Cc1ccc(OCc2cc(C(=O)N3CCN(C)C[C@@H]3c3ccccc3)no2)cc1C | -1% | 0.71 | 8.7 | i | 1.9 | -19 | -14 | 2.0 | 6
O=C(NCCN1CCOCC1)c1c(F)c(F)c(F)c(F)c1F | -2% | 0.66 | -7.0 | . | . | . | . | . | 0
COc1ccc(NC(=O)C2(C)Cc3c(-c4cccc(C(N)=O)c4)ccnc3O2)cc1OC (centres undefined) | . | . | 1.8 | i | 0.6 | 5 | -1 | 0.7 | .
COc1ccc(C(=O)N2CCCC(c3nc(-c4cccs4)no3)C2)cc1OC (centres undefined) | -2% | 0.72 | -0.1 | i | 3.2 | -23 | -15 | -6.2 | -2
CCN(CC)C(=O)CSc1nc2ccccc2n1CC(=O)N1CCN(c2ccccc2OC)CC1 | 11% | 0.67 | 3.5 | . | . | . | . | . | 17
COC(=O)Nc1ccc(S(=O)(=O)N2CCCCC2C(=O)NCc2ccco2)cc1 (centres undefined) | -8% | 0.72 | 0.4 | . | . | . | . | . | -11
COc1cccc(Nc2c3c(nc4c(-c5ccccc5)c(C)nn24)CCC3)c1 | . | 0.74 | -3.6 | i | 5.3 | -13 | -4 | 4.0 | -5
COc1ccc2nc(N3CCCC3)c(C#N)cc2c1 | 11% | 0.68 | -18 | . | . | . | . | . | -9
O=C(c1ccco1)N1CCN(Cc2nc(-c3cccs3)no2)CC1 | -4% | 0.68 | -0.8 | i | -0.7 | -4 | 11 | -2.3 | .
CCOC(=O)c1c(N)sc(C(=O)OC)c1C | 4% | 0.66 | 0.3 | i | -2.2 | -7 | -1 | -2.9 | .
O=C(CSc1nnc(COc2ccccc2)n1-c1ccccc1)c1ccccc1 | -7% | 0.67 | -0.8 | . | . | . | . | . | 14
Cc1cccc(Nc2cnn(C34CC5CC(CC(CC(=O)O)(C5)C3)C4)c(=O)c2Cl)c1 | 6% | 0.66 | 4.5 | i | 4.1 | -4 | -5 | -6.3 | 1
O=C(CCC1CCCCC1)NCc1ccncc1 | 0% | 0.73 | 1.8 | . | . | . | . | . | -18
COc1cc(/C=C/C(=O)O)cc(S(=O)(=O)Nc2cc(Cl)c(Cl)cc2Cl)c1OC | 2% | 0.67 | -9.5 | . | -1.0 | -17 | -9 | -3.9 | 6
N#C/C(=C/c1ccc(N2CCOCC2)o1)c1nc2ccccc2[nH]1 | ? | 0.7 | 152 | . | . | . | . | . | 44
O=C(O)CNC(=O)c1ccc(S(=O)(=O)N2CCOCC2)cc1 | -1% | 0.74 | 0.4 | . | . | . | . | . | -2
CN(CC1CCN(CCc2cccc(C(F)(F)F)c2)CC1)C(=O)c1ccc(F)cc1F | . | 0.68 | 1.7 | i | -12 | 7 | 13 | 2.6 | -3
CNC[C@@H]1Oc2c(cccc2N(C)C)C(=O)N([C@H](C)CO)C[C@H]1C | . | . | . | i | -0.7 | 13 | -2 | -1.5 | .

Screening results: PubChem BioAssay, several laboratories
